N370S GC mod: inhibits or activates N370S mutant glucocerebrosidase | P04062 | N370S GC spleen homogenate, 4MU-glucoside fluorescence | Potency, µM (doses to about 59.4 µM), for inactives: top-dose activity change, negative = inhibition, usual class: inhibitors | 330,000 tested, 0.092% active;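 also: 0% = full enzyme activity and -100% = no enzyme basal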
TDP1 inh: inhibitors of human tyrosyl-DNA phosphodiesterase TDP1 | recombinant TDP1, AlphaScreen DNA substrate cleavage | Potency, µM (series often up to 130 µM), inactives show at the highest dose activity change, negative = inhibition, actives largely listed as inhibitors | 350,000 tested, 0.28% active | AID 485290; also: nearly all actives have a fitted effect of over 40% in size
Target sequence (Q9NUW8 whole entry, looked up): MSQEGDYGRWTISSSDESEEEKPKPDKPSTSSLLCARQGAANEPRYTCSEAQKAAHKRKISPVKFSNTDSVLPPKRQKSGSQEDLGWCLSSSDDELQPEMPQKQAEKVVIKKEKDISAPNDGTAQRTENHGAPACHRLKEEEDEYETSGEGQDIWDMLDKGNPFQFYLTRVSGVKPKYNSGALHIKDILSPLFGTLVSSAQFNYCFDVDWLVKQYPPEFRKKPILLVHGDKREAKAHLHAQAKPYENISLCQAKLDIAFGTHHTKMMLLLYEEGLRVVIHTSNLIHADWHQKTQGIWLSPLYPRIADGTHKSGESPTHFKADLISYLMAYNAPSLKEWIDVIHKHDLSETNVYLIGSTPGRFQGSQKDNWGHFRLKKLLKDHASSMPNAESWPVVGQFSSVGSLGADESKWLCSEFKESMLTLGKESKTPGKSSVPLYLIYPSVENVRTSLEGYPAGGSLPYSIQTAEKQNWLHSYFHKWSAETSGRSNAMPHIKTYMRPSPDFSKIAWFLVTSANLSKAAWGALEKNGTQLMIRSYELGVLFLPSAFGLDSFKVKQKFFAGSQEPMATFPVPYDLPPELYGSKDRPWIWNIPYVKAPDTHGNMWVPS
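Enzyme-compound mixtures sat 15 min at room temperature, followed by a 5 min reaction with 15 nM final substrate and 10 min with AlphaScreen beads. Recombinant human Tdp1 was used at 1 nM final.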
An asterisk follows results filed as active; x = not tested or not shown; & = joins results of further samples; [ ] = another dose, or the depositor's remark. Calls follow the shape of the dose curve; as a rule, active = well fitted curve in the direction sought with a large enough effect; inconclusive = small, poorly fitted or top-dose-only effect, or another doubt; inactive = no such curve, though single readings can be large; an effect the other way counts as inactive or inconclusive. Unless noted, % is scaled to controls: 0 for no effect and ±100 for the full control effect; potency is read from the fitted curve at half-maximal effect. The list is partial, and most or all hits are left out here.

SMILES | N370S GC mod | TDP1 inh
Cc1nn(C)c(C)c1NC(=O)CSc1nc(-c2ccccc2Cl)nc2c1cnn2-c1ccccc1 | 2% | 3%
COCC(C)OC(=O)/C(C#N)=C\c1coc2ccc(C)cc2c1=O (stereo unspecified) | -12% | 0%
Cc1cc(C)cc(N2C(=O)c3nccnc3C2=O)c1 | 1% | 4%
Cc1ccc(Cl)cc1N1CCN(C(=O)Cn2ccc3ccccc3c2=O)CC1 | 7% | -1%
CCOC(=O)N1CCN(C(=O)C2CC(c3ccc(F)cc3)=NO2)CC1 (stereo unspecified) | -2% | 1%
COc1ccc(Br)cc1CNc1ccc(S(N)(=O)=O)cc1 | -21% | 0%
COc1ccc(CNC(=O)CC2C(=O)NCCN2C2Cc3ccccc3C2)cc1 (stereo unspecified) | 5% | 4%
Cc1cccc(N=Nc2c(C)c(C#N)c(O)[nH]c2=O)c1 | -6% | 6%
O=C(NCCOc1ccc(F)cc1)C1CCC(=O)N(CCCN2CCCC2=O)C1 (stereo unspecified) | -4% | 1%
CCOC(=O)C1CCCN(S(=O)(=O)c2cccs2)C1 (stereo unspecified) | 3% | 1%
O=C(NCCC1=CCCCC1)C1CCN(S(=O)(=O)N2CCCC2)CC1 | -8% | 1%
CC1(C)Cc2ccccc2C(=NC(Cc2c[nH]c3ccccc23)C(=O)O)N1 (stereo unspecified) | 3% | 1%
CC1=C(C(=O)OCc2ccccc2)C(c2ccccc2)NC(=O)N1 (stereo unspecified) | 1% | 3%
O=C1C(C=NC2CC2)=C(O)c2ccccc21 | -1% | 4%
CCc1nnc(NC(=O)CN2CCN(Cc3ccc(C)cc3)CC2)s1 | 0% | x
Cc1ccc(C)c(CN2C(=O)CSc3ccc(C(=O)N4CCCC4)cc32)c1 | -1% | 3%
Cn1c(=O)c2c(nc(NCCOc3ccc(C(C)(C)C)cc3)n2C)n(C)c1=O | -20% | 3%
Nc1nonc1-n1nnc(C(=O)N/N=C/c2cccs2)c1-c1ccc2c(c1)OCO2 | -26% | 5%
CCOC(=O)CNS(=O)(=O)c1ccc(S(=O)(=O)NC2CC2)cc1 | 0% | x
O=C(Cn1ccn(-c2ccc(F)c(F)c2)c(=O)c1=O)NCCc1ccccc1 | -4% | -1%&1%
COc1cccc(/C=C/C(=O)Nc2ccc3c(c2)OCCO3)c1OC | -2% | 1%
COC(=O)CC1(C(=O)OC)Oc2ccc(Br)cc2C(=O)N1c1ccc(Br)cc1Cl (stereo unspecified) | 1% | -3%
Cc1ccc(S(=O)(=O)N2CCC(C)CC2)cc1[N+](=O)[O-] | 13% | -3%
COC(=O)CN1C(=O)[C@H]2[C@@H](/C=C/c3ccccc3)N3C(=O)CN(CC4CC4)C(=O)[C@@]3(Cc3ccccc3)[C@H]2C1=O | -1% | x
Cc1c(Cl)cccc1NC(=O)CSc1sc2c(O)cc(=O)[nH]c2c1C#N | -9% | 2%
CC(OC(=O)Cc1n[nH]c(=O)c2ccccc12)C(=O)Nc1cccc([N+](=O)[O-])c1 (stereo unspecified) | 3% | -5%
COc1cc(Cl)ccc1OCc1cc(C(=O)N(C)CCc2cnn(C)c2)no1 | -2% | 4%
CCOc1c(N2CC(C)OC(C)C2)c(=O)c1=O (stereo unspecified) | 3% | x
O=C(Nc1sc2c(c1C(=O)O)CCCC2)c1cccs1 | -12% | 4%
COc1ccccc1CNC(=O)COC(=O)c1sc(C)nc1C | x | 0%[56.1 µM]
COc1ccc(C(=O)CN2CCN(c3cc(C)nc4ccccc34)CC2)cc1 | 0% | 10%
Cc1cc(NC(=O)CSc2nc3cc(Cl)ccc3c(=O)n2Cc2ccco2)no1 | 14% | 1%
CC(=O)C1=C(O)C(=O)N(c2cccc(C(=O)O)c2)C1c1ccc(F)cc1 (stereo unspecified) | 6% | -3%
Cc1cc(C(=O)NNC(=S)NCC2CCCO2)cs1 (stereo unspecified) | -23% | 6%
COCCNc1nc2c(c(=O)n(C)c(=O)n2C)n1Cc1cccc(C(F)(F)F)c1 | 1% | 5%
COc1cccc(N2CCN(C(=O)CCCCCNc3nc(=S)[nH]c4ccccc34)CC2)c1 | -24% | 6%
Cc1[nH]c2ccccc2c1C(=O)CSc1ccc(F)cc1 | 17% | 1%
Cc1ccc(S(=O)(=O)n2nc(C)cc2C)cc1 | 0% | 0%
COc1cccc(-c2cc3nc4c(c(N5CCC6(CC5)OCCO6)n3n2)CCCC4)c1 | 8% | -2%
O=C(OCCN1CCCCC1)c1ccccc1F | 1% | x
Oc1sc(C=Nc2ccccc2)c2ccccc12 | 8% | -6%
CCOc1ccc(-n2nnc3c(=O)n(CC(=O)NCc4ccco4)cnc32)cc1 | 0% | -6%
CC(C)c1cc(C(=O)NNC(=S)NC2CCCCC2)cs1 | 3% | 3%
O=C(CN1CCC(Cc2ccccc2)CC1)NCCc1ccc(F)cc1 | 17% | -4%
COc1cccc(NC(=O)CS(=O)(=O)c2cn(CC(=O)N3CCOCC3)c3ccccc23)c1 | 0% | -2%
COCCSc1ccccc1C(=O)N1CCCC(C)C1 (stereo unspecified) | 1% | 5%
O=C(CSc1nc(=O)n(CCN2CCOCC2)c2c1CCCC2)Nc1cccc([N+](=O)[O-])c1 | -7% | 5%
COc1cc(C(=O)Nc2ccc(NC(C)=O)cc2)ccc1OCc1ccccc1 | 2% | 5%

Profiles, looked up by structure.
Profile of Cc1ccc(S(=O)(=O)n2nc(C)cc2C)cc1 : N370S GC mod = 0%; TDP1 inh = 0%
Profile of COc1cccc(-c2cc3nc4c(c(N5CCC6(CC5)OCCO6)n3n2)CCCC4)c1 : N370S GC mod = 8%; TDP1 inh = -2%

An excerpt from above in order of number of heavy atoms, descending:
SMILES | N370S GC mod | TDP1 inh
Cc1nn(C)c(C)c1NC(=O)CSc1nc(-c2ccccc2Cl)nc2c1cnn2-c1ccccc1 | 2% | 3%
COc1cccc(N2CCN(C(=O)CCCCCNc3nc(=S)[nH]c4ccccc34)CC2)c1 | -24% | 6%
Cn1c(=O)c2c(nc(NCCOc3ccc(C(C)(C)C)cc3)n2C)n(C)c1=O | -20% | 3%

The list continues:
SMILES | N370S GC mod | TDP1 inh
CCC(=O)N1N=C(c2ccccc2)CC1c1ccc([N+](=O)[O-])cc1 (stereo unspecified) | 3% | 0%
O=C(COC(=O)C1CC(=O)N(Cc2ccccc2)C1)Nc1cccc([N+](=O)[O-])c1 (stereo unspecified) | x | -12%
CCn1c(/C=C/c2ccc([N+](=O)[O-])o2)nc2ccccc2c1=O | -3% | 0%
O=C(OCc1ccccn1)c1ccc(COc2ccccc2Cl)o1 | x | -10%
O=C(COc1ccc(Cl)cc1)Nc1cc(-c2ccccc2)no1 | x | 5%
Cc1ccc(Cn2c(CNC(=O)Cc3cccc(C)c3)nc3cccnc32)cc1 | x | 0%
CCCCN1C=CC(=C2N=c3cccc([N+](=O)[O-])c3=N2)C=C1 | 2% | 2%
COc1cc(OC)c(C2=Nc3ccc(Br)cc3C(c3ccccc3)N2CC(=O)NN)cc1OC (stereo unspecified) | -12% | 6%
CCCNc1ncccc1C(N)=O | 10% | -2%
COc1ccc(Cl)cc1-c1nc(SCC(=O)NCCN2C(=O)CSC2=O)n[nH]1 | 4% | 0%
CCOC(=O)/C(=N\Nc1ccccc1Cl)N1CC(C)OC(C)C1 (stereo unspecified) | 24% | -1%
O=C(Cc1ccc(-n2cccc2)cc1)N1CCc2ccccc21 | -2% | x
Cc1ccc(C(=O)N2CCCCC2)cc1S(=O)(=O)N1CCOCC1 | 5% | 2%
O=C(CCCc1ccccc1)NCc1cn2ccsc2n1 | -17% | 2%
CSc1cccc(NC(N)=O)c1 | -6% | 6%
CCOC(=O)C1CN(S(=O)(=O)c2ccc(OC)cc2)c2cc(S(=O)(=O)CC)ccc2O1 (stereo unspecified) | 0% | 7%
O=C(c1ccc2c(c1)OCCO2)C1CCN(S(=O)(=O)c2ccc(F)cc2)CC1 | -1% | 0%
COc1cc(CC(=O)OCC(=O)Nc2ncc(Cl)cc2Cl)cc(OC)c1OC | -22%[2.35 µM] | -3%
CC(=O)Nc1ccc(Oc2ccccc2)cc1 | 5% | 6%
CC(=O)Nc1ccc(S(=O)(=O)NCC(=O)OCC(=O)NC23CC4CC(CC(C4)C2)C3)cc1 | -4% | 0%
CCCCOc1cccc(C(=O)Nc2ccc(NC(=O)c3ccco3)cc2)c1 | -11% | 13%
COc1cc(CN2CCCC(N3CCN(c4ccc(F)cc4)CC3)C2)ccc1F (stereo unspecified) | -10% | 5%
COc1ccc(/C=C(/C#N)C(=O)Nc2cccc([N+](=O)[O-])c2)cc1C(=O)O | -1% | -1%
O=[N+]([O-])c1ccc(NCc2ccccn2)nc1 | -14% | 4%
Cc1ccccc1NC(=O)CCN1C(=O)c2ccccc2C1=O | -1% | 3%
CCCn1c(SCCc2ccccc2)nc2c1c(=O)[nH]c(=O)n2C | 23% | 4%
CCNC(=S)N1CCc2cc(OC)c(OC)cc2C1COc1ccc(OC)cc1 (stereo unspecified) | 10% | 5%
COc1cc(C(=O)Nc2oc(-c3ccccc3)c(-c3ccccc3)c2C#N)cc(OC)c1OC | 11% | 1%
O=c1[nH]nc(SCc2ccccc2)n1C1CC2C=CC1C2 (stereo unspecified) | 12% | 4%
CCOCC(=O)Nc1ncc(S(=O)(=O)c2ccc([N+](=O)[O-])cc2)s1 | -5% | 4%
NS(=O)(=O)c1ccc(CCNC(=O)CSc2ccc(Cl)cc2)cc1 | -4% | -5%
CCN(CC)S(=O)(=O)N1CCC(C(=O)NCCC2=CCCCC2)CC1 | 2% | 5%
CCCn1ncc(CN2CCC(n3nccc3NC(=O)CCc3ccccc3)CC2)c1C | -2% | 2%
O=C(CCc1ccccc1)NNc1ccc(F)cc1 | 4% | 6%
CCOC(=O)c1c(NC(=O)c2cccc([N+](=O)[O-])c2C(=O)O)sc2c1CCCC2 | -1% | x
Cc1onc(-c2ccccc2)c1C(=O)NCCc1ccc(S(N)(=O)=O)cc1 | 1% | -1%

Already shown: entries from further up.
SMILES | N370S GC mod | TDP1 inh
Cc1nn(C)c(C)c1NC(=O)CSc1nc(-c2ccccc2Cl)nc2c1cnn2-c1ccccc1 | 2% | 3%
COCC(C)OC(=O)/C(C#N)=C\c1coc2ccc(C)cc2c1=O (stereo unspecified) | -12% | 0%
Cc1cc(C)cc(N2C(=O)c3nccnc3C2=O)c1 | 1% | 4%
Cc1ccc(Cl)cc1N1CCN(C(=O)Cn2ccc3ccccc3c2=O)CC1 | 7% | -1%
CCOC(=O)N1CCN(C(=O)C2CC(c3ccc(F)cc3)=NO2)CC1 (stereo unspecified) | -2% | 1%

Next results
SMILES | N370S GC mod | TDP1 inh
Cc1cccc(CS(=O)(=O)Cc2ccc(C(=O)NCc3cccnc3)o2)c1 | 4% | 5%
CCOc1ccc(CN(CC)C(=O)Cc2c[nH]c3ccccc23)cc1OC | -2% | 7%
CCN(CC(=O)Nc1c(F)cccc1F)C(=O)C1Cc2ccccc2CN1S(=O)(=O)CC (stereo unspecified) | 2% | x
CCOc1ccccc1NC(=O)c1cc(CC(C)C)oc1C | -12% | 3%
CC12C=CC(=O)C=C1CCC1C3CCC(O)(C(=O)CO)C3(C)CC3OC312 (stereo unspecified) | -1% | 7%
COc1ccc2oc(C(=O)OCC(=O)N3CCCCC3)c(C)c2c1 | -2% | -4%
O=C(CCCl)Nc1cc(SCCO)cc([N+](=O)[O-])c1 | -3% | 1%
Clc1ccc(OCCCn2cncn2)cc1Cl | 15% | -6%
COc1ccc2oc(=O)c(-c3nc(-c4cccs4)no3)cc2c1 | x | -3%
O=C(O)CCC(=O)Nc1ccccc1C(=O)NCc1ccco1 | 1% | 2%
CCCCOC(=O)c1ccc(NC(=O)C(CCS(C)(=O)=O)NC(C)=O)cc1 (stereo unspecified) | -1% | 6%
CCOC(=O)N1CCN(C(=O)CN(c2ccc3c(c2)OCO3)S(C)(=O)=O)CC1 | 2% | 9%
Cc1ccc2oc3c(c(=O)c2c1)C(c1cccs1)N(CCCN(C)C)C3=O (stereo unspecified) | 2% | -5%
CC(C)n1c(SCC(=O)Nc2ccccc2N2CCCCC2)nc2c1c(=O)n(C)c(=O)n2C | 19% | 4%
CCOC(=O)c1nn2c(C(F)(F)F)cc(-c3ccc(OC)cc3)nc2c1Br | -18% | x
O=C(Nc1ccc2ccccc2n1)c1ccc(Cl)cc1 | -6% | x
CCOc1ccccc1CNC(=O)C1CCN(c2nc3ccccc3o2)CC1 | 9% | 3%
CCOC(=O)c1[nH]c2ccc(OC)cc2c1NC(=O)CN1CCC2(CC1)OCCO2 | 4% | -2%
OCC1(CCc2ccccc2)CCN(Cc2c(F)ccc(F)c2F)CC1 | -7% | -5%
Cc1ccc(C)c(N2CCN(S(=O)(=O)c3ccc(-c4cc(C)no4)s3)CC2)c1 | 8% | 1%
O=C(CNC1CCCC1)Nc1cc(Cl)ccc1[N+](=O)[O-] | -18% | 3%
CCCCn1c(N)c(N(C)C(=O)c2ccc(OCC3CCCO3)cc2)c(=O)[nH]c1=O (stereo unspecified) | x | 0%[56.1 µM]
C=C(C)c1ccc(C(C)(C)NC(=O)NCc2ccco2)cc1 | 1% | 6%
O=C(CCNS(=O)(=O)c1cccc(C(F)(F)F)c1)NCc1ccco1 | x | 0%
COc1ccccc1NC(=O)c1cc(C(=O)Nc2ccccc2OC)cc([N+](=O)[O-])c1 | 0% | x
CN(C(=O)C1CCCO1)C1CCS(=O)(=O)C1 (stereo unspecified) | -18% | -9%
Cc1sc(NC(=O)Cn2[nH]c(=O)c3ccccc3c2=O)nc1-c1ccccc1 | -5% | 2%
